Source: PubChem
UCH37 DUB inh: inhibitors of human UCH37 deubiquitinase, primary screen, biochemical, Ub-AMC cleavage, fluorescence; Ubiquitin carboxyl-terminal hydrolase isozyme L5 (Homo sapiens), Q9Y5K5; 330,000 tested, 0.33% active; inhibition, % (concentration not given with the values); purified proteasome/UCH37; AID 588478, 2011;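 active means mean of two replicates above 20%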;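 further: 0% = compound-free wells with enzyme and 100% = wells lacking proteasome; stock transfer was 100 nL into about 20 µL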
Target sequence (Q9Y5K5 whole entry, looked up): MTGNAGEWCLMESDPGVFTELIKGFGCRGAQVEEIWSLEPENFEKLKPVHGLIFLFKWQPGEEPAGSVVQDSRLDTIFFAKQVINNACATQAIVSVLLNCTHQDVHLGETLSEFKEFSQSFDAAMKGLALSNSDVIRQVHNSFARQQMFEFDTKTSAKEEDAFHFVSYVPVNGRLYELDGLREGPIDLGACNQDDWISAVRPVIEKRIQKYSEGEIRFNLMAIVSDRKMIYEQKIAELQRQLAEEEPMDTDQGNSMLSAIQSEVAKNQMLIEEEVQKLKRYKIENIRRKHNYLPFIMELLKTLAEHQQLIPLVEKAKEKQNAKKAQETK
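Material: human UCH37 enzyme supplied as purified proteasome complex / Amount: 0.15 nM proteasome as dispensed / Buffer or medium: pH 7.4 Tris-HCl (50 mM) with ovalbumin, ATP-MgCl2, DTT / Times: preincubation 30 min, reaction 25 min, room temperature / Technique: AMC fluorescence from Ub-AMC cleavage, excitation 355 nm, emission 460 nm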
LANA-H2B inh: blockers of LANA interaction with H2A/H2B – biochemical, FP readout, HTS, primary screen | 320,000 tested, 0.6% active | cell-free LANA-H2A/H2B peptide, fluorescence polarization | Protein LANA1 (Human herpesvirus 8 type P (isolate GK18)), Q9QR71 | inhibition, % (test concentration not listed); in the data active means inhibition mostly above about 10%, no sharp cut-off; inactive means mostly below about 6.7%;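 further: stock transfer was 7.5 nL into about 10 µL; 0% = median of vehicle wells and 100% = median of positive control wells; one replicate is shown; the record names a cut of 25% in any replicate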
A1 inh: caspase 3/7 activation in MEF A1-2A-BIM cells, primary screen, A1 inhibitor project, cell-based, luminescence, HTS. 330,000 tested, 0.066% active. AID 2462, 2010. caspase activation, % (no concentration beside the values). Caspase-Glo 3/7 luminescence, 3 h; percent of clofoctol response, vehicle zero;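 active means over half of replicate activation scores above 10%, or exactly half above 10 with the replicate mean above 10; inconclusive means replicate mean below 10 yet half the replicates above 10; inactive means over half of replicates below 10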;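 further: wells of about 30 µL received 50 nL stock; many hits fall short of the cut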
E coli growth: E. coli growth inhibition, primary screen, OD600. AID 1053175, 2014. 330,000 tested, 0.21% active. OD600 absorbance (concentration not given with the values). Escherichia coli growth, 23 h; stronger effect = lower value;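 active means OD600 absorbance below the run mean of sample wells minus 3.6 SD, in any replicate, cut at about 0.56 in these data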;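 further: stock transfer was 300 nL into about 60 µL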
Beta2AR agonist: beta2AR agonists driving receptor internalization, primary screen, cell-based, FAP fluorogen, flow cytometry. Beta-2 adrenergic receptor (Homo sapiens), P07550. 340,000 tested, 0.43% active. Am2.2-beta2AR cells; reference of the scale not given here. response, % (concentration not given with the values);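 active means response above a set limit, near 3 SD of response in nonfluorescent compounds, cut at about 42% in these data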;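 further: stock transfer was 100 nL into about 11 µL; a reference agonist was the positive control; negative values mostly stem from fluorescent compounds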
Target sequence (P07550 whole entry, looked up): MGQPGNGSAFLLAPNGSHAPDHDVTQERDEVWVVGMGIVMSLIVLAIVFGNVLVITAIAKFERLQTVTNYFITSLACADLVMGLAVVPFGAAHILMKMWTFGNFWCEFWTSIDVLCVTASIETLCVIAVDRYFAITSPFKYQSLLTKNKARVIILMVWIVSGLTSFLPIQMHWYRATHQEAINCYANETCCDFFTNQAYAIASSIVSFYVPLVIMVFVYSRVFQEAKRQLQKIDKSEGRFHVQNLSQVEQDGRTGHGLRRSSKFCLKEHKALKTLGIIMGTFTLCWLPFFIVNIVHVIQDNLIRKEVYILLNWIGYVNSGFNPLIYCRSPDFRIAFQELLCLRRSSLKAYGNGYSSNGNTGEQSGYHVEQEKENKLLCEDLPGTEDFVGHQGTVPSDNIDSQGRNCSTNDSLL
HNF4A DNA FP: change in binding of human HNF4A to DNA, primary screen, biochemical, fluorescence polarization, FITC-DNA; 1 h; activity change, % at 10 µM; 360,000 tested, 0.3% active; AID 1224865, 2016; in the data active means activity change above about 30%, passing the limit was not always enough;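 further: controls were the assay level and a saturating level of protein; the project sought stronger binding though the title names inhibitors; some compounds called inactive have numbers as strong as hits; positive values seem to mean higher polarization but the record does not say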
Vif TR-FRET: inhibitors of Vif binding to APOBEC3G peptide, primary screen, biochemical, TR-FRET, GST-Vif 1-94, biotin-A3G peptide, dose response retest (AID 1117319) | 260,000 tested, 0.57% active | TR-FRET GST-Vif / biotin-A3G peptide binding; higher % means a stronger effect; test concentration not given here; strong numbers were not always called active | Virion infectivity factor (Human immunodeficiency virus type 1 group M subtype B (isolate … | inhibition, %; hits with a dose series show IC50 in µM;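 active means above the screen mean plus three standard deviations and confirmed in dose response; inconclusive means results disagree or hit not tested in dose response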;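 further: Vif residues 1-94 fused to GST binding biotinylated APOBEC3G peptide 110-148; 0% = full assay without inhibitor and 100% = GST in place of GST-Vif; retest series ran down from 100 µM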
The depositor's hits bear a star; ? = inconclusive; · = no result given; & = joins results of further samples.

SMILES	UCH37 DUB inh	LANA-H2B inh	A1 inh	E coli growth	Beta2AR agonist	HNF4A DNA FP	Vif TR-FRET
CCOC(=O)C(C)Sc1nc2c(c(=O)[nH]c(=O)n2C)n1C/C=C(/C)Cl (stereo not given)	0.4	1.2	0.8	0.71	3	0.8	-4%&10%
COc1cc(C2CC(=O)NC3=C2C(=O)CC(C)(C)C3)ccc1O (stereo not given)	-1.7	-9.6	·	0.69	7	3.9	-1%
Cc1cc(C)n(C(=O)Cn2nc([N+](=O)[O-])c(Br)c2C)n1	2.7	-3.3	0.0	0.71	-4	1.9	-5%
O=C(CCC(=O)N1CCOc2ccc(Cl)cc21)NCCCN1CCN(c2ccccc2F)CC1	3.8	2.6	0.3	0.75	7	-2.4	·
O=C(CN1C(=O)CSc2ccccc21)Nc1ccc2c(c1)OCCO2	0.6	8.1	0.3	0.61	4	-5.5	-1%
Cc1onc(-c2ccccc2Cl)c1C(=O)Nc1cccc(S(=O)(=O)NC2=NCCC2)c1	0.8	-2.0	-1.0	0.69	5	0.0	-2%
O=C(NCCCNCc1ccccc1)/C(=N\O)c1ccccc1	·	0.7	1.0	·	6	2.4	-7%
O=C(c1cc(-c2ccc(Cl)cc2)nc2ccccc12)N1CCOCC1	3.3	-4.1	?	0.72	-4	1.7	·
COc1cccc(C2c3c(-c4ccccc4O)n[nH]c3C(=O)N2Cc2ccco2)c1 (stereo not given)	0.8	-13	1.2	0.68	3	6.5	2%
c1ccc(-c2n[nH]c(-c3ccccc3)c2-c2nc3ccccc3[nH]2)cc1	1.9	-2.0	1.2	0.66	6	1.4	24%
C=CCNC1=C(Cl)C(=O)N(c2ccccc2Cl)C1=O	-9.1	2.7	0.3	0.68	-3	3.0	1%
COc1ccc(CCNC(=S)NCc2ccc(Cl)c(Cl)c2)cc1OC	0.7	-5.0	0.3	0.68	4	0.1	·

In the list so far, these have an aryl methoxy group:
SMILES	UCH37 DUB inh	LANA-H2B inh	A1 inh	E coli growth	Beta2AR agonist	HNF4A DNA FP	Vif TR-FRET
COc1cc(C2CC(=O)NC3=C2C(=O)CC(C)(C)C3)ccc1O (stereo not given)	-1.7	-9.6	·	0.69	7	3.9	-1%
COc1cccc(C2c3c(-c4ccccc4O)n[nH]c3C(=O)N2Cc2ccco2)c1 (stereo not given)	0.8	-13	1.2	0.68	3	6.5	2%
COc1ccc(CCNC(=S)NCc2ccc(Cl)c(Cl)c2)cc1OC	0.7	-5.0	0.3	0.68	4	0.1	·

Going on with the list.
SMILES	UCH37 DUB inh	LANA-H2B inh	A1 inh	E coli growth	Beta2AR agonist	HNF4A DNA FP	Vif TR-FRET
Cn1c(NNC(=O)c2cccc3ccccc23)cc(=O)n(C)c1=O	2.8	2.1	1.0	0.69	7	1.5	-8%
C=CCC(=O)NC(C)c1cnn(-c2ccccc2C)c1C (stereo not given)	0.9	1.5	-2.0	0.65	17	-0.7	8%
CCn1c(CCNC(=O)c2cccs2)nnc1SCC(=O)Nc1ccc(Cl)cc1	3.3	0.9	0.7	0.65	3	-1.8	29%
O=C(NCc1nc2ccccc2[nH]1)c1ccco1	-4.7	3.5	-1.5	0.77	-2	-4.9	0%
Cc1ccc(NC2c3ncccc3C(=O)N2Cc2cccs2)cc1C (stereo not given)	3.6	-1.0	0.0	0.68	-9	6.5	·
CC(=O)Nc1cccc(-c2csc(Nc3cc(C)ccn3)n2)c1	1.5	1.8	0.0	0.64	11	-1.4	28%
COCC(O)CNc1ccccc1 (stereo not given)	2.2	0.5	0.5	0.71	0	2.2	1%
O=C(OC(C(=O)NC1CCCCC1)c1ccccc1F)c1ccco1 (stereo not given)	7.2	-2.2	0.0	0.67	-9	2.0	·
COc1ccccc1CNc1nc(=S)[nH]c2cc(OC)c(OC)cc12	5.3	-2.0	-0.7	0.65	13	4.2	-4%
COCCNC(=O)C1CC(c2ccccc2C(F)(F)F)=NO1 (stereo not given)	3.4	4.4	0.0	0.7	-15	-0.6	·
CC(C)C(=NO)c1ccccc1	4.1	·	·	0.66	3	2.0	3%
Cc1noc2ncc(C(=O)c3cc(F)ccc3O)cc12	0.4	-5.3	0.6	0.74	7	0.8	14%
CN(C)S(=O)(=O)c1cccc(C(=O)Nc2ccc(S(=O)(=O)N3CCCC3)cc2)c1	1.1	2.9	0.7	0.68	-7	4.3	-11%
CCOc1cc(/C=C2/C(=O)N(c3ccccc3)N=C2C)ccc1OC(=O)c1ccco1	5.5	5.3	0.4	0.66	-5	1.6	74%
CNS(=O)(=O)c1cccc(C(=O)OCC(=O)Nc2nc(OC)cc(OC)n2)c1	-0.7	-12	-0.2	0.67	2	-0.4	·
O=C(O)CSc1nnc(-c2ccncc2)n1-c1ccc(Cl)cc1	2.5	-3.1	0.1	0.67	-19	3.3	1%
CCc1nnc(NC(=O)C(C)Sc2ccccc2)s1 (stereo not given)	-0.1	5.7	0.6	0.65	-2	-1.8	8%
COc1ccc(OCC(=O)Nc2c(C)ccc3nsnc23)cc1	4.2	0.1	0.7	0.69	7	1.6	·
Cc1ccc2nc(SCC(=O)N3CCCCC3)nc(=O)n2c1	5.3	5.0	0.8	0.68	6	-1.9	6%
CCOC(=O)c1cc(C#N)c(SCC(=O)Nc2ccc(C(C)=O)cc2)[nH]c1=O	-26	2.9	-0.1	0.65	10	6.1	0%
COc1ccc(-c2nc(CN3CCC(C(=O)NC4CCCC4)CC3)c(C)o2)cc1OC	-2.6	-4.4	0.8	0.71	-5	3.6	·
CC1(C)Cc2c(c(N3CCOCC3)nc3sc4c(NCCN)ncnc4c23)CO1	-11	·	·	0.7	105*	5.8	·
Cc1ccc2[nH]c(=O)c(-c3nc4c(C)cccn4c3NCc3ccco3)cc2c1	2.2	-10.0	0.0	0.77	4	2.1	?
CCn1c(CC(=O)Nc2ccccc2)n[nH]c1=S	0.4	0.0	-0.2	0.69	1	-1.1	-2%
CC(C)(C)c1ccc(OCCC(=O)Nc2cccc(S(=O)(=O)N3CCOCC3)c2)cc1	1.8	-4.1	-0.1	0.73	-4	-0.1	·
COc1ccc2c(c1)c1c3n2CCN(C)C3=NCC1	-1.4	-1.6	-0.8	0.67	4	-1.2	5%
N/C(=N\OC(=O)c1cc(-c2ccccc2)nc2ccccc12)c1ccncc1	-1.6	4.1	-0.5	0.69	-2	1.1	0%
O=C(NN=C1CCCCC1)Nc1ccccc1Cl	1.2	1.0	-0.2	0.69	-5	4.8	·
CS(=O)(=O)Nc1nc2ccccc2[nH]1	1.2	-3.5	1.3	0.69	-40	-3.7	5%
Cc1ccc(NC(=O)CN(C)C(=O)C2CCC2)cc1	5.6	·	·	0.7	0	5.5	6%
CCC(=O)NC(c1ccccc1)c1c(O)ccc2ccccc12 (stereo not given)	-11	4.9	-0.4	0.7	10	6.3	-7%
Cc1oc2cc([N+](=O)[O-])c(O)c([N+](=O)[O-])c2c1C(=O)c1ccc(Cl)cc1	17	-3.3	0.4	0.67	6	-0.7	18%
C/C=C/c1ccccc1OCc1ccc(C(=O)O)o1	1.5	2.1	0.8	0.73	1	-0.8	-1%
Cc1ccc(-n2c(C)nnc2SCC(=O)N(C)C2CCS(=O)(=O)C2)cc1 (stereo not given)	2.5	5.8	0.5	0.68	-1	-2.3	-9%
CCCc1ccc2oc(C(=O)N3CCCC3)c(C)c2c1	3.0	-2.4	-0.7	0.64	2	-1.2	-5%
CCOc1ccc(C(=O)NCC(=O)N2CCN(c3ccc(C(F)(F)F)cn3)CC2)cc1	2.1	-4.2	0.1	0.73	-6	0.4	-10%

Among those listed so far, two contain a nitro group on carbon:
SMILES	UCH37 DUB inh	LANA-H2B inh	A1 inh	E coli growth	Beta2AR agonist	HNF4A DNA FP	Vif TR-FRET
Cc1cc(C)n(C(=O)Cn2nc([N+](=O)[O-])c(Br)c2C)n1	2.7	-3.3	0.0	0.71	-4	1.9	-5%
Cc1oc2cc([N+](=O)[O-])c(O)c([N+](=O)[O-])c2c1C(=O)c1ccc(Cl)cc1	17	-3.3	0.4	0.67	6	-0.7	18%

Remaining list, next part.
SMILES	UCH37 DUB inh	LANA-H2B inh	A1 inh	E coli growth	Beta2AR agonist	HNF4A DNA FP	Vif TR-FRET
COc1cccc(NC(=S)N(Cc2ccccn2)Cc2ccccc2Cl)c1	4.0	6.7	0.2	0.73	5	0.0	-1%
O=C(O)c1cc(S(=O)(=O)Nc2ccccc2Cc2ccccc2)ccc1Cl	5.5	2.2	0.2	0.65	3	-2.9	2%
CN1CCN(c2ncnc3c2cnn3-c2ccc(Cl)cc2)CC1	2.8	-4.4	-3.5	0.69	5	-3.0	-6%
CC1=NNC(=O)C1C(c1ccccc1)C(C#N)C#N (stereo not given)	3.0	4.1	0.6	0.67	0	3.1	11%
Cn1nccc1/C=N\NC(=O)c1ccc(Cl)cc1	·	6.1	-0.9	·	-5	2.1	8%
COc1ccc(NC(=O)CC(C)n2ccnc2)cc1 (stereo not given)	1.8	-1.0	0.7	0.67	2	-4.6	-1%
CCN1CCSc2ccc(C(=O)NCc3ccccc3F)cc21	-53	1.9	·	0.7	8	-2.2	·
COC(=O)c1ccc2nc(NC(=O)C(C)(C)C)sc2c1	2.6	-4.9	-4.2	0.7	-4	5.2	·
O=C(CSc1nc2c(sc3ccccc32)c(=O)n1-c1ccccc1)NCc1ccco1	-18	-6.2	0.5	0.69	8	-5.3	-13%
CCN1C(=O)[C@@H]2[C@@H](c3ccc(-c4ccc(OC)cc4)cc3)N3CCC[C@@]3(C(=O)OC)[C@@H]2C1=O	-0.4	-1.6	-0.2	·	8	-2.1	·
CC1CCN(C(=O)c2cc3nc(-c4ccccc4)cc(-c4ccccc4)n3n2)CC1	-67	2.9	0.2	0.73	-14	0.8	-1%
COc1ccc(-c2ncccc2OC(=O)C23CC4CC(CC(C4)C2)C3)cc1	-27	4.7	0.1	0.66	-3	-0.7	·
Cc1ccc(C)c(Cc2c(C)nc(C)[nH]c2=O)c1	1.5	-0.8	1.0	0.68	3	3.1	0%
N#CC1=C(N)N(c2ccc(F)cc2)C(=O)C1	2.9	0.2	0.0	0.68	-3	1.4	30%
COc1ccc(Cl)cc1NC(=O)CN(C)S(=O)(=O)c1cccs1	1.7	-2.2	0.5	0.69	-8	6.4	·
COc1ccc(NC(=O)C/C(C)=N/NC(=O)CCc2ccccc2)c(OC)c1	·	-2.5	-0.3	·	7	-2.0	·
Cc1cc(C)n(-c2nc3ccccc3c(=O)n2OCCOc2ccccc2)n1	5.5	3.8	0.0	0.75	-4	6.4	2%
CC(C)(C)n1nnnc1C(c1ccc(Cl)cc1)N1CCSCC1 (stereo not given)	-3.1	-0.1	-0.4	0.68	6	-1.1	3%
COC(=O)[C@]1(C)N[C@H](CN(C)C(C)=O)[C@@H]2C(=O)N(C)C(=O)[C@@H]21	2.5	·	·	0.69	3	-2.6	8%
CNCCOc1ccccc1OC(C)C	3.0	-2.2	0.1	0.69	13	-3.0	10%
Clc1ccc(-n2cccc2/C=N/n2cnnc2)cc1	·	-1.4	-0.5	·	-9	16	6%
CC(C)CCOCC1CC2(CC(C)(c3csc(N)n3)OC2=O)C(=O)O1 (stereo not given)	-0.8	1.9	-0.1	0.73	-6	-0.5	-1%
Cn1cc(C(=O)N/N=C/C2=C(N3CCOCC3)C(=C/c3ccc([N+](=O)[O-])cc3)/CC2)ccc1=O	·	5.7	0.0	·	-10	-2.4	·
CC(C)(NC(=O)N1CCOCC1)c1cccc(C(C)(C)NC(=O)N2CCOCC2)c1	0.4	-3.6	1.0	0.69	6	-1.0	·
